# High-throughput results as filed in PubChem BioAssay.
# eIF4H FP inh: inhibitors of RNA binding by human eIF4H; eIF4H fluorescence polarization binding assay; inhibition, % at 35 µM; 290,000 tested, 0.94% active;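 active = 50% or more with normal probe brightness, or confirmed in later tests; inconclusive = above 50% with abnormal brightness, or retests that disagree; inactive = below 50% or failed in later tests; about a fifth of its hits are not listed in these tables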;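 note: calls also rest on retests at 20 µM and on dose response follow-up; 0% = protein and probe with vehicle and 100% = probe without protein; strong numbers were not always called active; many hits fall short of the cut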
# HIV Env fusion: inhibitors of HIV Env-mediated cell fusion. HeLa-JRFL Env/CEM21 cell fusion, luciferase. inhibition, % at 12.3 µM. 360,000 tested, 1.1% active;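 active = mean replicate inhibition score of at least 50 and every replicate individually at or above 50; inconclusive = only one of the two criteria met; inactive = mean below 50 and not all replicates reaching 50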;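 note: 0% = plate neutral controls and 100% = maraviroc near 300 nM; one replicate is shown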
# Rce1 inhib: blocks yeast Ras-converting enzyme; 290,000 tested, 0.27% active; calls only; AID 2563; Q03530; yeast membranes, quenched prenylated peptide cleavage fluorescence;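 active = fall in fluorescence gain of 50% or more versus controls, with final raw signal at or below 3038400; inconclusive = same 50% fall but final raw signal above 3038400; inactive = fall in fluorescence gain under 50%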;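 note: plate controls were neutral control wells for no effect and wells lacking membranes for full effect; tested at 10 µM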
# Target sequence (Q03530 whole entry, looked up): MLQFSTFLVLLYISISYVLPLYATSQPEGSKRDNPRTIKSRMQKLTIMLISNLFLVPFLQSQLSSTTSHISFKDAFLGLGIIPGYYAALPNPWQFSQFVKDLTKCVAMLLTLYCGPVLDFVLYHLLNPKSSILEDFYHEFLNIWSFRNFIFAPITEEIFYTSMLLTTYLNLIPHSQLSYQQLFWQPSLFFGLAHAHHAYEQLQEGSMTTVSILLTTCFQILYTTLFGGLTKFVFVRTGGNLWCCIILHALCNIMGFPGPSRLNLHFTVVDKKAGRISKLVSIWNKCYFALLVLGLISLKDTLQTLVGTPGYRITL
# Yeast UUG start: modulators of start codon recognition fidelity in yeast; S. cerevisiae UUG-firefly luciferase reporter, luminescence/redox ratio; activity score, % at 18.7 µM; 350,000 tested, 0.13% active; AID 602363;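 active = replicate mean at a twofold rise or more, about +100% in these data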;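 note: firefly luciferase made from a UUG start codon reports start codon fidelity; reporter light over untreated wells divided by growth signal over untreated wells; some hits fall short of that in this replicate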
# CSC inhib: cancer stem cell inhibition. cancer stem cell-like cells viability, luminescence. inhibition, % at 7.5 µM. 300,000 tested, 1.1% active. AID 2717;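 active = mean at 75% or more and at least half the replicates too; inconclusive = mean and replicates disagree; tested in HMLE shEcad cells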;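 note: 0% = median of negative and 100% = median of positive control wells; the first replicate is given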
# PABP polyA inh: PABP-poly(A) binding inhibition. PABP-poly(A) RNA binding, fluorescence polarization. P11940. AID 2014. 290,000 tested, 1% active. inhibition, % at 35 µM;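 active = 50% or more with normal probe brightness, or confirmed in later tests; inconclusive = above 50% with abnormal brightness, or retests that disagree; inactive = below 50% or failed in later tests; about a fifth of its hits are not listed in these tables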;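 note: calls also rest on retests at 20 µM and on dose response follow-up; controls were probe without protein and protein plus probe with vehicle; some compounds called inactive have numbers as strong as hits; many hits fall short of the cut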
# MT1-MMP act inh: blocks activation of human MT1-MMP; P50281; HT1080 RFP-PRO-GFP cells, GFP/RFP ratio fluorescence, overnight; percent of plate control window, DMSO zero; GFP/RFP ratio change, % at 20 µM; 360,000 tested, 0.061% active;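 active = GFP/RFP ratio change of at least 30% with cell ATP level not reduced by more than half and red fluorescence within 50% of control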; note: strong numbers were not always called active
#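 Compound: 20 µM single dose, 1% DMSO / System: HT1080 RFP-PRO-GFP cells / Controls: DMSO and RFP-L50D-GFP cell wells / Read-out basis: GFP/RFP fluorescence ratio / Schedule: overnight compound exposure at 37 °C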
# eIF4H FP inh retest: further read-out of eIF4H FP inh, marked with its call; inhibition, %; compound at 20 µM; confirmation average;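 mean of two retest wells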
# PABP polyA inh retest: also measured in PABP polyA inh; calls as there; inhibition, %; compound at 20 µM; confirmation repeats;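 mean of two retest wells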
# MT1-MMP act inh RFP: further read-out of MT1-MMP act inh, marked with its call; RFP signal change, %; measured here: RFP expression control read;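 0 = vehicle wells; hits needed this value within 50% of zero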
# * hit, by the source's call; i = inactive; ? = inconclusive; . = no result given.
# Start of the data: the first 2 compounds as a preview:
SMILES,eIF4H FP inh,HIV Env fusion,Rce1 inhib,Yeast UUG start,CSC inhib,PABP polyA inh,MT1-MMP act inh,MT1-MMP act inh RFP,others
CCCCn1c(N)c(N(CC(C)C)C(=O)c2cc(C)nc3ccccc23)c(=O)[nH]c1=O,.,-7.8,i,-8.7,.,.,-4.8,0.1,
C[C@@H](C(=O)Nc1ccc2c(c1)OCCO2)n1nnc2ccccc2c1=O,-7.9,-54.7,i,-17.8,-3.3,4.5,2.0,-3.1,

# The list itself (from the top)
SMILES,eIF4H FP inh,HIV Env fusion,Rce1 inhib,Yeast UUG start,CSC inhib,PABP polyA inh,MT1-MMP act inh,MT1-MMP act inh RFP,others
CCCCn1c(N)c(N(CC(C)C)C(=O)c2cc(C)nc3ccccc23)c(=O)[nH]c1=O,.,-7.8,i,-8.7,.,.,-4.8,0.1,
C[C@@H](C(=O)Nc1ccc2c(c1)OCCO2)n1nnc2ccccc2c1=O,-7.9,-54.7,i,-17.8,-3.3,4.5,2.0,-3.1,
CC(C)(C)OC(=O)C[C@@H]1C/C=C\C[C@@H](CC(=O)N[C@H](CO)Cc2ccccc2)C(=O)N2CCC[C@H]2COC1=O,.,-39.4,.,6.5,.,.,-4.3,1.5,
COc1cccc(NC(=O)CCC2CCN(C(=O)C3CC=CCC3)CC2)c1 (stereo unspecified),2.7,2.5,i,15.8,14.3,5.7,-4.3,-3.9,
CCc1c(C)nc2c(-c3ccccc3)c(C)[nH]n2c1=O,-9.1,-22.8,i,-14.9,-6.1,12.9,4.1,-1.5,
CCOc1ccc(-n2nc3ccc(NC(=O)c4ccc5c(c4)OCCO5)cc3n2)cc1,10.0,.,i,.,12.7,3.6,4.2,-3.6,
Cc1ccc(NC(=O)CSc2nnc(-c3cc(C)on3)o2)cc1,27.7,-0.9,.,-15.0,-0.6,-5.4,1.2,4.8,
COCCn1cnc2c1c(=O)[nH]c(=O)n2Cc1ccccc1,3.2,.,i,1.4,.,-0.3,-0.5,-0.2,
C=CCC(C(=O)OC)(C(=O)OC)c1ccccc1[N+](=O)[O-],-1.0,1.0,i,.,-15.9,-1.2,0.6,7.2,
CC(=O)c1cccc(NC(=O)CC2S/C(=N/N=C/c3ccccc3)NC2=O)c1 (stereo unspecified),2.7,15.0,i,.,-17.5,3.2,-5.3,-3.8,
Cc1ccc(NC(=O)CC2S/C(=N/N=C3/NC(=O)CS3)NC2=O)cc1 (stereo unspecified),9.0,-7.1,i,.,-0.7,-19.1,-0.3,2.9,
O=C(CNC(=O)Cn1ccc2ccccc2c1=O)NCCCN1CCCCCC1,7.0,-29.7,.,-3.7,4.9,29.1,-0.1,1.7,
CC(=O)OCC1OC(c2ccccc2)C(OC(C)=O)C(OC(C)=O)C1OC(C)=O (stereo unspecified),7.1,2.2,i,-4.2,-1.8,3.9,1.0,2.5,
O=C1c2ccccc2C(Nc2ccc(F)cc2F)N1CCN1CCOCC1 (stereo unspecified),-12.5,37.6,i,21.2,-12.9,-25.4,-0.6,2.6,
CCOC(=O)C(=O)C1C(=O)Nc2ccccc21 (stereo unspecified),25.0,9.2,i,.,-17.0,11.3,-1.2,5.3,
COc1ccc(S(=O)(=O)NC(=O)C2(C)CCN2C(=O)C(C)(C)c2ccccc2)cc1 (stereo unspecified),.,2.8,.,-12.1,.,.,-7.1,-0.1,
CC(=O)OC1CC[C@@]2(C)C(CCC3C2CC(=O)[C@@]2(C)C3CC3CC(C)=CC(=O)C32)C1 (stereo partly specified),-0.9,4.9,i,5.1,8.0,4.8,1.6,3.6,
O=[N+]([O-])c1cccc(C2Nc3cccc4cccc(c34)N2)c1,43.6,-3.8,i,-10.6,-9.3,2.1,-0.2,5.2,
CCOC(=O)c1ccc(COC(=O)CNC(=O)CNC(=O)c2ccc(OC)cc2)o1,-9.8,.,i,-16.8,-9.9,4.9,1.1,2.8,
O=C(NC(=S)N1CCCCC1c1cccnc1)c1ccccc1 (stereo unspecified),3.0,.,i,-13.7,-7.4,46.4,5.0,1.9,
COc1ccc(-n2nnnc2SCC(=O)Nc2nnn(C)n2)cc1,-4.8,-0.1,i,-14.2,.,-1.6,4.5,4.1,
CCOc1ccc(CCNC(=O)Cc2ccc(NC3=NC4CS(=O)(=O)CC4S3)cc2)cc1OCC (stereo unspecified),-4.9,1.2,i,8.9,-14.5,-0.6,-0.4,3.0,
Cc1cc(C)n2nc(C(=O)N/N=C/C=C/c3ccccc3)nc2n1,-7.1,-2.5,i,-14.3,6.2,-3.8,1.9,8.2,
OC(c1ccccc1)c1ncc(-c2cccc(OCc3ccccc3)c2)[nH]1 (stereo unspecified),.,?,.,-9.6,.,.,-2.7,-4.0,
C/C(=N\NC(N)=S)c1cccnc1,-8.3,-5.7,i,-17.9,18.9,-2.1,-1.3,0.4,
# Carrying on:
SMILES,eIF4H FP inh,HIV Env fusion,Rce1 inhib,Yeast UUG start,CSC inhib,PABP polyA inh,MT1-MMP act inh,MT1-MMP act inh RFP,others
COc1cc(CNCCCN2CCOCC2)c(Br)cc1OC(C)C,-0.7,-24.6,i,-8.2,.,8.0,2.3,3.4,
Cc1ccc2cc(/C=N/NC(=O)c3ccc(F)cc3)c(Cl)nc2c1,-10.1,4.9,i,.,-3.6,2.9,7.0,4.8,
O=C(Nc1cccc2ccccc12)N1CCN(c2ccc(F)cc2)CC1,-14.0,.,i,-6.8,-9.0,8.7,-0.4,-3.2,
CN(C)CCCn1c(NCc2ccc3c(c2)OCO3)nc2ccccc21,2.1,-42.1,i,.,-13.5,10.7,0.6,5.8,
Cc1nc(NC(=O)c2cccc(Cl)c2)sc1-c1csc(Nc2cccc(Cl)c2)n1,1.1,.,i,.,46.1,7.3,.,.,
N#CCSc1nc2ccccc2c(=O)n1CCCC(=O)NCc1ccco1,-6.7,-5.4,i,-3.8,4.1,4.8,6.0,2.4,
COC(=O)C1=C(C)N(Cc2ccc(OC)c(OC)c2)C(=O)C1,-1.7,.,i,-0.3,-7.1,10.5,-3.4,1.0,
CN1C=C(C(F)(F)F)C=C/C1=C(\C#N)c1nnc2n1CCCCC2,-8.3,.,i,1.1,.,0.1,4.8,2.4,
Cc1ccc(NS(=O)(=O)c2cccc(C(=O)NCC3CCCO3)c2)cc1 (stereo unspecified),.,-3.4,i,-13.0,-0.7,.,11.1,1.0,
O=C(CCCc1nc(-c2ccccc2)no1)NC1CCCC1,-9.7,-3.8,i,15.5,-4.7,4.9,-5.1,-7.9,
CCCCn1c(SC(C)C(=O)NCC2CCCO2)nc2cc(C(=O)OC)ccc2c1=O (stereo unspecified),.,-29.0,i,-1.5,-2.3,.,2.1,0.8,
Cc1[nH]nc2c1C(c1ccc(OC(=O)c3ccco3)cc1)C(C#N)=C(N)O2 (stereo unspecified),-0.6,.,i,-6.6,11.9,0.9,7.7,1.9,
Cc1ccccc1-c1nn(-c2ccc(F)cc2F)cc1CNCCN(C)C,-6.1,2.0,i,1.2,-1.3,-6.3,4.8,0.6,
CC(C)CNC(=O)C(=O)NCCCN1CCOCC1,8.7,9.9,i,.,.,-12.0,2.4,3.9,
CCOc1cc(C(=O)Nc2ccc(NC(C)=O)cc2)ccc1OCC(=O)N1CCCCC1,-7.7,24.4,i,.,-15.2,0.3,-2.3,2.4,
CN(C)N1C(N)=C(C#N)C(c2ccc(Cl)cc2)C2=C1CCCC2=O (stereo unspecified),-11.2,12.3,i,-2.3,-5.5,4.0,1.9,2.4,
CC(=C1C(=O)c2ccccc2C1=O)N1CCN(CCN=CC2=C(O)CC(C)(C)CC2=O)CC1,-3.3,.,i,.,-20.0,1.7,2.0,7.7,
c1csc(-c2nn3cnnc3c3ccccc23)c1,0.0,-17.8,i,.,-1.2,11.3,1.5,-1.7,
CCc1c(C)nc(Nc2nc(C)c3ccc(OC)cc3n2)[nH]c1=O,1.2,.,i,-6.0,8.0,-9.5,10.7,0.7,
O=C(/C=C/c1ccccc1)NC(=S)Nc1ccc(CN2CCOCC2)cc1,2.0,3.7,i,.,5.0,-2.3,-6.5,-5.3,
Cc1nn(CC(=O)NCCN2CCCCC2C)c(=O)c2cc(-c3ccccc3)nn12 (stereo unspecified),7.2,7.8,i,-10.4,42.0,4.4,-0.1,-2.3,
CC(=O)N1CCN(CC(=O)Nc2cc(F)ccc2C)CC1,8.7,-4.2,i,-2.6,-14.2,-6.9,9.2,-3.0,
O=C(O)C1(NS(=O)(=O)c2ccc(Cl)cc2)CCCCC1,-0.9,-27.4,i,-3.8,-2.0,-12.8,-2.8,-0.4,
COc1cc(Cl)ccc1OCc1cc(C(=O)N(C)C2CC(C)(C)NC(C)(C)C2)no1,-9.8,4.5,i,5.4,-10.8,0.8,-4.0,-2.5,
Clc1ccccc1CO/N=C1\CCCc2nonc21,-8.1,.,i,-18.2,-2.2,-0.1,-2.5,-2.3,
# Following part
SMILES,eIF4H FP inh,HIV Env fusion,Rce1 inhib,Yeast UUG start,CSC inhib,PABP polyA inh,MT1-MMP act inh,MT1-MMP act inh RFP,others
CCn1c(O)c(C2=c3ccccc3=NC2=O)c2cc(Br)ccc21,0.1,1.0,i,.,22.8,0.2,.,.,
CCc1ccc(NC(=O)[C@H](NC(=O)[C@@H]2Cc3ccccc3CN2)c2ccccc2)cc1,-6.3,-4.9,i,-10.7,-2.1,4.3,0.9,0.6,
COc1ccc(CCNc2nc(C)nc3c2oc2ccccc23)cc1OC,-0.7,.,i,.,-13.7,12.1,-3.9,-27.2,
CCC(C)(C)NC(=O)CN(C(=O)CCC(=O)Nc1nccs1)c1ccccc1C,-1.1,-13.3,i,-6.1,-8.1,-1.4,-1.5,-0.3,
CCCn1cc(CN2CCCC(CNC(=O)c3ccc(F)cc3)C2)c(C)n1 (stereo unspecified),-4.9,-37.5,i,.,-12.7,11.1,-2.7,0.4,
CCOc1ccc(NC(=S)N2CCCN(Cc3cc(C)ccc3C)C2)cc1,2.7,-46.5,i,-27.3,7.4,2.7,1.2,-1.0,
CC(=O)Nc1ccc(NC(=O)c2csc([C@H]3C[C@H](O)[C@@H](CO)O3)n2)cc1,.,-9.1,.,-11.3,.,.,-0.2,-1.5,
CCn1cc(C(=O)O)c(=O)c2cc(Br)ccc21,3.9,16.9,.,1.0,-11.9,-6.1,-0.3,0.4,
CC(C)NC(=O)N(C)C[C@@H]1OCc2cnnn2CCCC(=O)N([C@H](C)CO)C[C@@H]1C,.,-81.5,.,-0.2,.,.,4.0,5.8,
COc1ccc(/C=C2\SC(=S)N(CCC(=O)Nc3ccccn3)C2=O)cc1OC,84.7,10.8,i,-7.5,.,58.6,-0.4,-1.6,eIF4H FP inh retest=4.0;PABP polyA inh retest=3.0
CSc1cccc(NC(=O)CN(C2CCCCC2)S(C)(=O)=O)c1,-6.2,-12.4,i,0.7,1.4,-9.1,1.2,-0.8,
Cc1cc(C)c2c(c1)/C(=N/NC(=O)c1cc(C)oc1C)CCC2,6.9,.,i,.,0.2,-5.9,4.4,6.4,
COc1cccc(C#CC2=CC(=O)CC(C)(C)C2)c1,.,1.5,.,-1.4,.,.,-0.7,-1.8,
COc1cc(OC)cc(C(=O)NC(=S)NNC(=O)Cc2cccs2)c1,9.4,-1.1,i,-24.1,8.3,3.9,4.1,8.3,
O=C(O)CNC(=O)c1ccc(S(=O)(=O)N2CCOCC2)cc1,-5.7,-41.3,i,0.5,-7.3,7.7,16.1,2.5,
CCn1c(N2CCN(S(=O)(=O)c3ccccc3)CC2)nc2ccccc21,-41.5,20.6,i,6.2,-0.6,2.1,-4.3,-12.4,
O=C(Nc1cc(Cl)ccc1-n1cncn1)C1CC1,.,.,i,-18.9,-2.6,.,2.7,9.4,
